Bioassay records: PubChem, National Center for Advancing Translational Sciences (NCATS)
2A firefly – Primary qHTS Assay for Foot and Mouth Disease Virus Antivirals against NCGC Sytravon and CBC Compound Libraries: Firefly Luciferase Signal. HEK cells with a luciferase reporter of 2A StopGo recoding. Potency, µM (top dose mostly 57.5 µM), without a hit: at the highest dose signal change, negative = less light. 120,000 tested, 0.23% active. AID 1745856, 2022; active = well fitted falling curve with a large enough effect; inconclusive = small, poorly fitted or top-dose-only effect; inactive = no such curve, though single readings can be large or run the other way; also: nearly all actives have a fitted effect of over 60% in size; overnight with compound
2A Renilla – Primary qHTS Assay for Foot and Mouth Disease Virus Antivirals against NCGC Sytravon and CBC Compound Libraries: Renilla Luciferase Signal; Potency, µM (top dose mostly 57.5 µM), without a hit: at the highest dose signal change, negative = less light; AID 1745857, 2022; HEK cells with a luciferase reporter of 2A StopGo recoding; 120,000 tested, 0.32% active; active means well fitted falling curve with a large enough effect; inconclusive means small, poorly fitted or top-dose-only effect; inactive means no such curve, though single readings can be large or run the other way; also: nearly all actives have a fitted effect of over 55% in size; overnight with compound
* marks the source's active call; other numbers are inactive results; ? = inconclusive; [ ] = another dose, or the depositor's remark. % is scaled to controls: 0 for no effect and ±100 for the full control effect; potency is read from the fitted curve at half-maximal effect.

SMILES | 2A firefly | 2A Renilla
O=C(NCc1ccco1)c1ccc2c(c1)N(Cc1ccc(Cl)cc1)C(=O)c1ccccc1S2=O (stereo not given) | -20% | 120%[activator]
O=C(CCS(=O)(=O)c1cccc2nonc12)Nc1c(F)cccc1F | -13% | -3%
Cc1nc(NC(C)C)sc1C(=O)NCc1ccco1 | -2% | -9%
CCc1noc(C(C)N2CCC(c3ccnn3CCO)CC2)n1 (stereo not given) | 12% | 1%
O=C(O)Cc1cccc2ccccc12 | -21%[11.5 µM] | -5%
O=S(=O)(c1ccc(-c2cnc(C3CC3)o2)cc1)N1CCN(c2ccccc2)CC1 | -14% | -12%
COc1cccc2cc(S(=O)(=O)N3CCCC(C)C3)c(=O)oc12 (stereo not given) | 14% | 57%[activator]
O=C(Nc1cccc(Cl)c1)c1cc(S(=O)(=O)N2CCCc3ccccc32)ccc1F | 15% | 5%
COc1ccc(-c2cc(-c3nc(-c4cc(OC)c(OC)c(OC)c4)no3)[nH]n2)c(OC)c1 | 13% | 16%
COc1ccc(OC)c(CNC(=O)c2ccc(-c3nc(CSc4ccccc4)c(C)o3)cc2)c1 | 0% | 20%
O=C(Nc1ccc(OC(F)F)cc1)c1nc(S(=O)(=O)Cc2ccc(F)cc2)ncc1Cl | ? | ?
Cc1ccc(NC(=O)C2CCCN2S(=O)(=O)c2ccc3c(c2)n(C)c(=O)c(=O)n3C)cc1C (stereo not given) | 48%[activator] | 4%
C=CCOc1ccccc1NC(=O)c1ccccc1C | 28% | 4%
CCOCc1ccc(CNC(=O)c2nccnc2N)cc1 | ? | 25µM*
CCOC(=O)c1c(C)c(-c2ccccc2)n(CC(=O)Nc2cccc(C)c2C)c1C | -10% | -6%

6 structures out of the list, sorted by heavy-atom count, lowest first.
SMILES | 2A firefly | 2A Renilla
Cc1nc(NC(C)C)sc1C(=O)NCc1ccco1 | -2% | -9%
C=CCOc1ccccc1NC(=O)c1ccccc1C | 28% | 4%
CCc1noc(C(C)N2CCC(c3ccnn3CCO)CC2)n1 (stereo not given) | 12% | 1%
O=S(=O)(c1ccc(-c2cnc(C3CC3)o2)cc1)N1CCN(c2ccccc2)CC1 | -14% | -12%
O=C(Nc1ccc(OC(F)F)cc1)c1nc(S(=O)(=O)Cc2ccc(F)cc2)ncc1Cl | ? | ?
COc1ccc(-c2cc(-c3nc(-c4cc(OC)c(OC)c(OC)c4)no3)[nH]n2)c(OC)c1 | 13% | 16%

(next part)
SMILES | 2A firefly | 2A Renilla
O=C(NCCCO)C(=O)Nc1c2c(nn1-c1ccc(F)cc1)CSC2 | -16% | -17%
COc1ccc(C(=O)Oc2ccc(Cl)cc2Cl)cc1OC | 20% | 12%
Cc1ccc(-c2nc(CS(=O)CC(=O)NCc3ccc(Cl)cc3)c(C)o2)cc1 (stereo not given) | -15% | -7%
O=C(NCc1ccccc1)c1cnc(N2CCCCC2)c2ccccc12 | 37%[activator] | 56%[activator]
CCN(CC)S(=O)(=O)c1ccc(C)c(NS(=O)(=O)c2cccc(C(C)=O)c2)c1 | 27% | 132%[activator]
Cc1ccccc1C(=O)Nc1sc(C)c(C)c1C#N | 98%[activator] | 15%
COc1ccc(S(=O)(=O)Nc2ccc(-c3ccc(N4CCCC4)nn3)cc2)cc1F | 12% | -5%
Cc1ccc(Cl)cc1N1CCN(C(=O)C2CCCN(Cc3nc(-c4cccc(Cl)c4)oc3C)C2)CC1 (stereo not given) | -16% | -8%
O=S(=O)(c1ccc2c(c1)OCCO2)c1nc(-c2cccc(Cl)c2)oc1N1CCOCC1 | -13% | 139%[activator]
O=C(Nc1ccc(O)cc1)c1cc(-c2ccncc2)nc2ccccc12 | 0% | -7%
CN1CCN(C(=O)CCCC(=O)O)CC1 | 5% | -3%
COCCn1c(SCC(=O)c2ccc3c(c2)CCC3)nnc1-c1ccc(Cl)cc1 | -5% | 13%
COc1ccc(C(=O)NCC(C)O)cc1 (stereo not given) | 15% | 7%
CCCC(=O)Nc1ccc2oc(-c3ccccc3C)nc2c1 | 14% | 24%
CNC(=O)Cn1cc(S(=O)(=O)Cc2ccccc2F)c2ccccc21 | 1% | 9%
Cc1ccc(-c2nc3scc(CCNS(=O)(=O)c4c(C)noc4C)n3n2)cc1 | 3% | 134%[activator]
COc1ccc(-c2nc3cc(NC(=O)COc4cccc(C)c4)ccc3o2)cc1 | 74%[activator] | -2%
COC(=O)c1cccc(C(=O)O)n1 | 3% | 6%
Cn1cc(S(=O)(=O)N2CCN(Cc3ccccc3F)CC2)c(=O)n(C)c1=O | 21% | 11%
CC(=O)Nc1sc2c(c1SC#N)CCCC2 | -20% | ?
CC1=C(C)CC(C(=O)NCc2ccncc2)C(C(=O)O)C1 (stereo not given) | 10% | 19%
Cc1cc(C)cc(NC(=O)c2cc(S(=O)(=O)N3CCOCC3)cn2C)c1 | -5% | -7%
CCOc1ccc(C2C(C#N)=C(N)OC(C(C)(C)C)=C2C#N)cc1OCC (stereo not given) | 12% | 16%
COc1ccc(C(=O)C(C)Sc2nnc3ccccn23)cc1OC (stereo not given) | 16% | -1%
CCOC(=O)c1nc(N(C)c2cccc(C)c2)c2ccccc2n1 | ? | ?
CC1(C)C2CCC1(C)C(OCC[N+](C)(C)CC#N)C2 (stereo not given) | -1% | 12%
CCOC(=O)C1=C(C)N=C2SCC(=O)N2C1c1cccc(OC)c1 (stereo not given) | -7% | -10%
COc1ccc(Cl)cc1NC(=O)c1cc(S(=O)(=O)N2CCC(C)CC2)cn1C | 3% | -1%
Cc1[nH]c2ccccc2c1C(c1ccccc1O)c1c(C)[nH]c2ccccc12 | 55%[activator] | 44%[activator]
CC(C)(C)N1CC(C(=O)Nc2ccc(C(N)=O)cc2)CC1=O (stereo not given) | -7% | -7%
Cc1cccc(Cc2cnc(NC(=O)CCc3nnc(-c4ccsc4)o3)s2)c1Cl | 14% | 2%
Cc1cc(C)c(NC(=O)C(C)n2nc(C)c3sc4ccccc4c3c2=O)c(C)c1 (stereo not given) | -18% | -10%
CCOc1ccc(-c2ccc(C(=O)O)s2)cc1 | ? | 0%
Cc1ccc(-n2c3c(c(=O)[nH]c2=O)C(NS(=O)(=O)c2ccc(C)cc2)(C(F)(F)F)C(=O)N3)cc1 (stereo not given) | -7% | -5%
O=C(OCC1CCCO1)c1ccc2c(c1)N(Cc1cccc(Cl)c1)C(=O)c1ccccc1S2(=O)=O (stereo not given) | 0% | 10%
CC(C)c1ccc(NC(=O)c2ccc(N(C)C)cc2)cc1 | 0% | ?
COCCNC(=O)c1ccc2nc(Cc3ccccc3)oc2c1 | 75%[activator] | -5%
COc1ccc(Cl)cc1C(C)=O | 7% | 5%
c1ccc(Oc2cccc(-c3nc4ccccc4s3)c2)cc1 | 170%[activator] | 15%
Cc1cc(C)c2c(=O)[nH]c(SCC(=O)c3ccc(C)c(C)c3)nc2n1 | 0% | 5%
CCCn1c(SCC(=O)Nc2ccc(C)c(F)c2)nc(O)cc1=O | -8% | -8%
CCC(=O)NCCc1cccc2cccnc12 | 0% | 20%
CCCOc1ccccc1Cn1c(=O)sc2ccccc21 | -4% | 13%
Cc1oc(-c2ccccc2)nc1CC(=O)NCc1ccco1 | 44%[activator] | 26%
O=C(O)/C(=C\c1ccc(Br)cc1)Sc1nc2ccccc2s1 | 60%[activator] | 32%[activator]
N#Cc1ccccc1CSCCNC(=O)Nc1cccnc1 | 10% | 3%
Cc1cc2nc(C(F)(F)F)c(=O)n(C(C)C(=O)NCc3ccccc3)c2cc1C (stereo not given) | 2% | -8%
CC(=O)N1CCC(NC(=O)/C=C/c2cnc3ccccc3n2)CC1 | 27% | -9%
CC(C1CC1)N(Cc1ccccc1)S(=O)(=O)c1cccc2nsnc12 (stereo not given) | -2% | 36%[activator]
CCOC(=O)C1CCCN(C(=O)Cn2ncc3c(C)n(Cc4ccccc4F)c(C)c3c2=O)C1 (stereo not given) | 34%[activator] | -14%
COc1ccc(/C=C2\Oc3cc(OS(C)(=O)=O)ccc3C2=O)cc1 | -7% | -19%
COCC(=O)Nc1cccc(NC(=O)C2CCC2)c1 | -10% | -6%
Cc1ccc(C2N=C(Nc3nc4ccccc4o3)NC3=C2C(=O)CC(C)(C)C3)cc1 (stereo not given) | 19% | 5%
CCOc1cc(C2C(C(=O)OC)=C(C)NC3=C2C(=O)c2ccccc23)ccc1OCC#N (stereo not given) | 21% | 14%
CS(=O)(=O)Oc1ccc2c(c1)O/C(=C\c1ccc3c(c1)OCO3)C2=O | 16% | 0%
O=C(CSc1nc(=O)n(Cc2ccco2)c2c1CCC2)NC1CCCC1 | -4% | 52%[activator]
CCN(CC)S(=O)(=O)c1cc(NC(=O)C2CCCN(C(=O)c3ccc(F)cc3)C2)ccc1C (stereo not given) | ? | ?
N#CC1(Nc2ccccc2)CCCCC1 | -7% | -5%[1.06 µM]
CCCOc1ccc(C(=O)Nc2ccc3oc(-c4ccc5ccccc5c4)nc3c2)cc1 | 53%[activator] | 9%
CCNC(=O)c1cccc(NC(=O)Cc2ccc(OC)cc2)c1 | 6% | -3%

3 of the compounds above, as labelled records:
Cc1ccc(C2N=C(Nc3nc4ccccc4o3)NC3=C2C(=O)CC(C)(C)C3)cc1 (stereo not given)
  2A firefly = 19%; 2A Renilla = 5%
CS(=O)(=O)Oc1ccc2c(c1)O/C(=C\c1ccc3c(c1)OCO3)C2=O
  2A firefly = 16%; 2A Renilla = 0%
N#CC1(Nc2ccccc2)CCCCC1
  2A firefly = -7%; 2A Renilla = -5%[1.06 µM]

(further entries)
SMILES | 2A firefly | 2A Renilla
CCn1c(=O)c2cc(C(=O)NCCc3ccc(OC)c(OC)c3)sc2c2ccccc21 | -11% | -5%
O=C(CSc1nnnn1-c1ccc(C(=O)O)cc1)Nc1cccc2ccccc12 | 4% | 1%
COC(=O)[C@]12C[C@H](CC(=O)NCc3ccc(OC)c(OC)c3)C(=O)N(Cc3ccco3)C1=C[C@H](COCc1ccccc1)O[C@@H]2C | -5% | -1%
Cn1nc(CC(=O)Nc2cccc(OC(=O)c3ccc(Cl)cc3)c2)c2ccccc2c1=O | -13% | -9%
O=C(NCCc1ccc(Cl)cc1)c1ccccn1 | 93%[activator] | 8%
COc1cc(C2C(C(N)=O)=C(C)Nc3nc(SCc4ccccc4F)nn32)cc(OC)c1OC (stereo not given) | -1% | 0%
O=C(Nc1ccc(O)c(-c2nc3ccccc3o2)c1)c1cccnc1 | 0% | ?
CC(C)N1C(=O)C(NC(=O)C(=O)NCCc2c[nH]c3ccc(F)cc23)c2ccccc21 (stereo not given) | -3% | -9%
COc1ccc(NC(=O)Cn2c(=O)oc3cc(S(=O)(=O)N4CCCCC4C)ccc32)cc1 (stereo not given) | -25% | 5%
COC(=O)CC(NC(=O)c1cccc(CS(C)(=O)=O)c1)c1ccccc1 (stereo not given) | 1% | 1%
O=c1oc2ccccc2cc1-c1nc(-c2ccc(F)cc2)no1 | 32%[activator] | 2%
Cc1ccc(C(=O)N2CCN(CCc3ccccc3)CC2)cc1C | 4% | -10%
O=C(O)COc1ccccc1/C=N/O | 5% | 4%
COc1cccc(C2CC(=O)N3CN(C4CCCCC4)CSC3=C2C#N)c1 (stereo not given) | -19% | 5%
CCCC1Cc2c(sc3nc(SCC(=O)c4ccccc4)nc(N)c23)CO1 (stereo not given) | 9% | 2%
Cc1ccc2oc(C(=O)N(Cc3cccc(F)c3)C3CCS(=O)(=O)C3)c(C)c2c1 (stereo not given) | -10% | -7%
CCc1ccc(-n2c(=O)c3sc4ccccc4c3n(CC(=O)N(CC)Cc3ccccc3)c2=O)cc1 | -7% | -8%
CCOc1ccccc1CNC(=O)C1CCN(Cc2cc3ccccc3n2Cc2ccccc2)CC1 | -14% | -5%
CCCCN(Cc1ccccc1)c1ccc(NS(=O)(=O)c2ccc(C(C)C)cc2)cc1C(=O)O | 12% | 119%[activator]
CCN(CC)S(=O)(=O)c1ccc(NC(=O)CSc2nc3ccccc3n2CC)cc1 | ? | -18%
CC1=C/C(=N\NC(N)=S)C(C)C1 (stereo not given) | 0% | -1%
Cc1ccc(F)c(NC(=O)CCNC(=O)c2ccco2)c1 | 6% | -2%
COc1cccc(CN(C(=O)COc2ccc(Cl)c(C)c2)C2CCS(=O)(=O)C2)c1 (stereo not given) | -13% | -5%
COc1ccc(N(Cc2nnc3n2CCCCC3)C(=O)Nc2ccccc2C)cc1OC | -20% | -11%
O=C(/C(Br)=C\Nc1ccc(F)cc1)C(F)(F)F | 39%[activator] | 10%
CC(=O)c1ccc(N2CCN(C(C(=O)O)c3cn(C)c4ccc(C(=O)O)cc34)CC2)cc1 (stereo not given) | -7% | -11%
Cc1nc(-c2ccccc2)sc1CCNC(=O)c1ccco1 | 84%[activator] | 0%
CN(CC(=O)OCc1coc(-c2cccs2)n1)S(=O)(=O)c1ccc(F)cc1 | 12% | -10%
Cc1ccc(CNC(=O)C(=O)NCC(c2ccco2)S(=O)(=O)c2ccccc2)cc1 (stereo not given) | -22% | -11%
Cc1ccc(CCNc2nc3c(S(=O)(=O)c4ccc(C)cc4)nnn3c3ccsc23)cc1 | -22% | -18%
